Anaer choline gr: blocks anaerobic gram-negative growth on choline. calls only. 55,000 tested, 0.2% active. Gram-negative bacterium anaerobic choline minimal medium, absorbance growth; hits give low values; many inactives read as strong as hits in the columns shown;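 active = growth z-score on choline under -2 at 7 or 20 h with little or no fall on glycerol, limits in tiers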;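 also: stock transfer was 300 nL into about 50 µL; the organism is E. coli; final concentration not given here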
Anaer choline gr early: recorded beside Anaer choline gr, whose call it bears; z-score; measured here: choline growth z-score, timepoint 1;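 score of optical density at 7 h as mean of two plates; lower means less growth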
* marks the source's active call; other numbers are inactive results; i = inactive; & = joins results of further samples.

Fields: Anaer choline gr early	Anaer choline gr
Cc1sc(C)c(S(=O)(=O)N2CCN(C3CCCCC3)CC2)c1-c1cc(C(F)(F)F)on1
→ 0.22	i
COC(=O)c1cc(S(=O)(=O)N2CCCC2C(=O)Nc2cc(OC)cc(OC)c2)cn1C (stereo unspecified)
→ -0.52	i
CC(C)(C)NCC(O)c1ccc(O)c(CO)c1 (stereo unspecified)
→ 0.88&0.64&0.05&0.5	i
CC(C)(Sc1ccc(CCN(CCCCC2CCCCC2)C(=O)NC2CCCCC2)cc1)C(=O)O
→ -0.15&0.8	i
O=c1c2cc(-c3ccc4c(c3)OCO4)nn2ccn1Cc1nc(-c2ccc(Br)cc2)no1
→ 0.54	i
CC(C)c1ccc(S(=O)(=O)N2CCN(CCn3c(C(F)(F)F)nc4cccnc43)CC2)cc1
→ 0.67	i
Cn1c(=O)n(C)c2cc(N3CCOCC3)c(NS(=O)(=O)c3ccc(Cl)cc3)cc21
→ 0.09	i
Cc1csc2ncc(C(=O)NC(C)(C)C)c(=O)n12
→ -0.49	i
Cc1ccccc1-c1nc(-c2ccncc2)no1
→ -1.5	i
Cc1ccc(C(=O)Cn2nc3n(C(C)C)c(=O)c4ccc(C(=O)NCC(C)C)cc4n3c2=O)c(C)c1
→ 0.94	i
Cc1sc(C)c(S(=O)(=O)NCCc2ccccc2)c1-c1cc(C(F)(F)F)on1
→ 0.22	i
Cc1nnc2c3ccccc3nc(NCc3ccccn3)n12
→ -1.1	i
COc1ccc(/C=C2\COc3ccc(C)cc3C2=O)cc1O
→ 1.4	i
Cc1ccc(C2C3=C(CC(c4ccccc4)CC3=O)Nc3ncnn32)cc1 (stereo unspecified)
→ 0.49	i
Cc1noc2ncn(CC(=O)NCC3CCCO3)c(=O)c12 (stereo unspecified)
→ -2.8	i
Cc1ccc(COC2CN(S(=O)(=O)c3ccc(C(C)C)cc3)C2)cc1
→ 2.2	i
COc1ccc(NS(=O)(=O)c2ccc3c(c2)-c2oncc2CO3)c(OC)c1
→ -0.38	i
COc1ccccc1N1CCN(C(=O)CSc2nc3ccccc3c(=O)n2CC2COc3ccccc3O2)CC1 (stereo unspecified)
→ 1.7	i
CCN1CCN(C(=O)CCNC(=O)N2CCSc3nc(C)cc(C)c32)CC1
→ 0.28	i
CCOC(=O)c1ccc2oc(=O)[nH]c2c1
→ -2.4	i
O=C(COc1ccccc1)Nc1ccc(OCc2cc(=O)n3[nH]cnc3n2)cc1
→ -0.77	i
CN(C)S(=O)(=O)Nc1ccc(N2CCN(CC(=O)N3CCCC3)CC2)c(C(=O)O)c1
→ 0.13	i
COc1cc(OC)c(NC(=O)N2CCc3cc(S(=O)(=O)N4CCC(C)CC4)ccc32)cc1Cl
→ 0.46	i
CN(C)c1nc2nonc2nc1Nc1cccc(Br)c1
→ -1.6	i
COc1ccc(N2CCN(C(=O)c3cc(S(=O)(=O)N4CCSCC4)ccc3Cl)CC2)cc1
→ 1.7	i
Cc1cc(NC(=O)N2CCCC2c2cc(C(C)C)no2)ccc1Br (stereo unspecified)
→ -0.26	i
Cc1nc2sccn2c(=O)c1S(=O)(=O)Nc1ccc(N2CCN(S(C)(=O)=O)CC2)cc1
→ -0.15	i
O=C(CC1Sc2ccccc2NC1=O)Nc1cccc(F)c1 (stereo unspecified)
→ 0.29	i
COC(=O)c1cn(-c2ccccc2)c(=O)c2ccccc12
→ 0.33	i
Cn1c(=O)c2nc(S(=O)(=O)CCC(=O)Nc3cc(F)ccc3F)n(C)c2n(C)c1=O
→ 0.16	i
CCn1c(=O)c(N2CCN(C(=O)c3ccccc3Br)CC2)nc2ccccc21
→ 0.51	i
O=C(Nc1ccccc1Br)N1CCN(c2ccc(-c3noc(C4CCC4)n3)cc2)CC1
→ 1.1	i
Fc1ccc(-c2cc3ncc4c(n3n2)-c2ccccc2OC4)cc1
→ 0	i
Cc1ccc(S(=O)(=O)CC(=O)Nc2sc3c(c2C(N)=O)CCCC3)cc1
→ 0.94	i
COC(=O)c1cc(S(=O)(=O)N2CCCC2C(=O)Nc2ccc(OC)c(OC)c2)cn1C (stereo unspecified)
→ -2	i
COc1ccc(OC)c(NC(=O)CSc2nnc3c4c(C)c(C)sc4ncn23)c1
→ 0.57	i
Cc1cc(C)n(-c2nc(C)c(C(=O)NC(C)C)s2)n1
→ -0.67	i
COc1ccc(OC)c(S(=O)(=O)Nc2ccc(-c3ccc(N4CCOCC4)nn3)cc2)c1
→ -0.73	i
Cn1nccc1-c1csc(S(=O)(=O)NC2CCCC2)c1
→ -1.1	i
Cc1ccc(Cl)cc1NC(=O)CCCn1nc(C)c2c(C)n(-c3ccccc3)nc2c1=O
→ 1	i
CC(C)(C)c1csc(-c2csc(S(=O)(=O)NCc3ccc4c(c3)OCO4)c2)n1
→ 0.25	i
Cc1nc2nc3c(c(N4CCN(c5ccccc5F)CC4)n2n1)CCCC3
→ 1.5	i
CCCn1c(CN2CCC(C)CC2)nc2cc(NC(=O)CC(C)C)ccc21
→ 0.2	i
CC(C)(C)NS(=O)(=O)c1ccc2c(c1)CCN2
→ 0.3	i
Cc1cccc(Oc2ncnc3sc(C)c(C)c23)c1
→ 0.52	i
COc1cc(CN2CCCC2c2cc(C)on2)ccc1OCC(C)C (stereo unspecified)
→ 0.62	i
COc1ccc(CN2CC(=O)N(c3ccc(Br)cc3)[C@@H]3CS(=O)(=O)C[C@@H]32)cc1
→ -0.08	i
Cc1cccc(-c2nccc(Oc3ccc(C(=O)NC4CCCCC4)cc3)n2)c1
→ -0.43	i
CCCCN(C)C(=O)C1CCCN(c2ccc(-c3ccc(C)cc3)nn2)C1 (stereo unspecified)
→ -0.17	i
O=C(Nc1ccc2nc(NC(=O)c3ccccc3)sc2c1)c1ccc(Cl)cc1
→ -0.7	i
CCc1nnc2n1CCN(Cc1csc3c1CCCC3)C2
→ -0.06	i
Cn1cnc(S(=O)(=O)Nc2ccc(F)c(F)c2)c1
→ -0.45	i
Cc1ccc(C(=O)N2CCN(Cc3noc4ccccc34)CC2)cc1
→ -0.38	i
C=CCN1CCN(c2nc3cc(C(=O)OC)ccc3c(=O)n2-c2ccc(Cl)cc2)CC1
→ 0.05	i
CCOc1ccc(-c2c(C)[nH]n3c(=O)c(NCCc4c[nH]c5ccccc45)c(C)nc23)cc1OCC
→ 0.15	i
CC(=O)N1CCCc2cc(S(=O)(=O)N3CCC(C(=O)N4CCc5ccccc5C4)CC3)ccc21
→ 0.47	i
COC(=O)C1=C(c2ccccc2)c2cc(Cl)ccc2S(=O)(=O)N1CC(=O)N(C)c1ccccc1
→ -0.07	i
N#CC1=CN(c2ccc(Br)cc2)c2ccc(F)cc2S1(=O)=O
→ -0.08	i
CN1C(=O)c2ccccc2Sc2cc(-c3noc(/C=C/c4ccccc4)n3)ccc21
→ 0.61	i
CCc1ccc(NC(=O)C2CCCN2S(=O)(=O)c2ccc3c(c2)NC(=O)CO3)cc1 (stereo unspecified)
→ -0.42	i

Further entries.
Fields: Anaer choline gr early	Anaer choline gr
O=C(CCC(=O)N1Cc2ccccc2Oc2ncccc21)NCc1ccccc1Cl
→ 0.54	i
COC(=O)c1cc2ccsc2n1CC(=O)NCc1ccc(F)cc1
→ -1.4	i
Cc1nc(Nc2ccccc2)nc(Nc2ccccc2)c1NC(=O)c1cccc(F)c1
→ 2.1	i
O=C(c1ccco1)N1CCN(c2nc(C3CC3)nc3c2CCC3)CC1
→ 0.73	i
CC1CC(=O)N(Cc2ccc(C(C)(C)C)cc2)c2ccccc2N1 (stereo unspecified)
→ 0.45	i
O=C(CCc1ccccc1)NCCc1csc(-c2ccc(Cl)cc2)n1
→ 1.1	i
O=C(NCc1c(-c2ccccc2)nc2n1CCS2)C1CCCCC1
→ -0.41	i
Cc1nc(-c2cc(S(=O)(=O)Nc3ccc(Br)c(C)c3)c(C)s2)cs1
→ 0.64	i
C=Cc1ccc(Cn2nc(C)c3c(C)onc3c2=O)cc1
→ -0.86	i
CC1(C)C(=O)NN(c2ccc(Br)cc2)C1=O
→ -1.2	i
O=c1[nH]c(SC/C=C/c2ccccc2)nc2c1cnn2CCO
→ -1.1	i
CCN1C(=O)CSc2ccc(C(=O)OC)cc21
→ -1.2	i
Cc1sc(-c2cc(C(F)(F)F)on2)cc1S(=O)(=O)Nc1ccccc1
→ 0.08	i
COc1cc(NC(=O)c2nc(Nc3ccccc3)c3ccccc3n2)cc(OC)c1
→ -0.37	i
CN(Cc1ccccc1)C(=O)CCc1nc(CN2CCN(S(=O)(=O)c3ccc(C(C)(C)C)cc3)CC2)no1
→ 1.3	i
O=C(Cn1cnc2c(nc3n2CCCCC3)c1=O)N1CCN(c2ccc(F)cc2)CC1
→ -1.4	i
CC1CCCN(Cc2nnc(-c3ccccc3)o2)C1 (stereo unspecified)
→ -0.18	i
CNC(=O)c1cn(-c2ccc(SCC(=O)NCc3ccc4c(c3)OCO4)nn2)cn1
→ -1.1	i
NC(=O)Cn1cnc2nc(N3CCC(C(=O)NC4CC4)CC3)sc2c1=O
→ 0	i
O=C(c1csc(S(=O)(=O)N2CCC(C(=O)N3CCCCC3)CC2)c1)N1CCOCC1
→ -0.65	i

Overlap with the part before: two compounds, followed by the next part.
Fields: Anaer choline gr early	Anaer choline gr
NC(=O)Cn1cnc2nc(N3CCC(C(=O)NC4CC4)CC3)sc2c1=O
→ 0	i
O=C(c1csc(S(=O)(=O)N2CCC(C(=O)N3CCCCC3)CC2)c1)N1CCOCC1
→ -0.65	i
Cc1ccc(-c2cc3ncc(C(=O)c4ccccc4O)cn3n2)cc1
→ -1.3	i
CCOC(=O)c1[nH]c2ccc(F)cc2c1NC(C)=O
→ -1.3	i
Cc1nn(CC(=O)NC(C)(C)C)c(C)c1S(=O)(=O)N1CCCC(C(=O)N2CCc3ccccc32)C1 (stereo unspecified)
→ -0.17	i
CN(C)CCNC(=O)c1ccc2c(c1)nc1n2CCCC1
→ -0.65	i
c1ccc(-c2ccc(SCc3nc(-c4ccccc4)no3)nn2)cc1
→ -0.56	i
CN(CC1COCCO1)S(=O)(=O)Nc1ccc2ccc3ncc(-c4cnn(C)c4)cc3c(=O)c2c1 (stereo unspecified)
→ 0.37	i
NS(=O)(=O)c1ccc(CCNC(=O)Cn2cnc3c([nH]c4ccccc43)c2=O)cc1
→ -0.26	i
CC[C@H](CO)NCCN[C@H](CC)CO
→ 0.15	i
Cc1ccc(-c2nc(C3CCN(S(=O)(=O)c4ccccc4)CC3)no2)cc1
→ -1.4	i
CN(c1ccc2sc(C(=O)N3CCN(c4ccccc4)CC3)cc2c1)S(=O)(=O)c1ccccc1
→ 0.94	i
O=c1n(Cc2cccc(Br)c2)nc2c(S(=O)(=O)N3CCOCC3)cccn12
→ -0.78	i
COc1ccc(-c2ccc(CNC(C)(C)C)o2)cc1Cl
→ 0.07	i
O=S(=O)(c1ccc(Br)cc1)N1CCC(n2c(C(F)(F)F)nc3cccnc32)CC1
→ 0.07	i
COC(=O)c1ccc(NC(=O)CC(c2ccc(OC)cc2)N2Cc3ccccc3C2=O)cc1 (stereo unspecified)
→ 0.11	i
CC(C1CC1)n1nccc1NC(=O)COc1cccc(Cl)c1 (stereo unspecified)
→ -0.12	i
Cn1c(=O)c2c(nc(Sc3ccccc3NC(=O)Nc3cccc(Cl)c3)n2C)n(C)c1=O
→ -0.93	i
O=C(Nc1ccc(F)c(Cl)c1)N1CCN(c2ccc(=O)n(-c3ccc(F)cc3)n2)CC1
→ -1.1	i
Nc1nc(SCC(=O)NCc2cccnc2)nc2sc3c(c12)CCCC3
→ 0.39	i
CCCCCCCC(=O)OC[C@H](CO)OC(=O)CCCCCCC
→ -0.73	i
CCC(=O)Nc1ccccc1-c1nnc(SC(C)C(=O)Nc2ccc(C)cc2C)[nH]c1=O (stereo unspecified)
→ 0.5	i

Part of the list above, as a markdown table:
| Compound | Anaer choline gr early | Anaer choline gr |
| --- | --- | --- |
| Cc1nn(CC(=O)NC(C)(C)C)c(C)c1S(=O)(=O)N1CCCC(C(=O)N2CCc3ccccc32)C1 (stereo unspecified) | -0.17 | i |
| c1ccc(-c2ccc(SCc3nc(-c4ccccc4)no3)nn2)cc1 | -0.56 | i |
| Cn1c(=O)c2c(nc(Sc3ccccc3NC(=O)Nc3cccc(Cl)c3)n2C)n(C)c1=O | -0.93 | i |
| CN(C)CCNC(=O)c1ccc2c(c1)nc1n2CCCC1 | -0.65 | i |
| CCC(=O)Nc1ccccc1-c1nnc(SC(C)C(=O)Nc2ccc(C)cc2C)[nH]c1=O (stereo unspecified) | 0.5 | i |

Remaining list, next part:
Fields: Anaer choline gr early	Anaer choline gr
O=C(Cc1ccc(F)cc1)NCCn1c(-c2ccccc2)nc2cccnc21
→ -0.11	i
CCc1nc(SCc2noc(CCC(=O)Nc3nccs3)n2)n[nH]1
→ -0.48	i
COc1cc2c(cc1OC)C(C)N(c1c(-c3ccc(C)cc3)c(=O)c1=O)CC2 (stereo unspecified)
→ 0.27	i
CCOc1ccc(Nc2cc(C(=O)Nc3ccc(OC)cc3)ccn2)cc1
→ 0.82	i
Brc1ccc2[nH]c3nc4ccccc4nc3c2c1
→ -0.85	i
CC(C)(C)S(=O)(=O)c1ccc(NCCC2=CCCCC2)nn1
→ -0.76	i
CN1CCN(C(CNC(=O)c2ccccc2Br)c2ccc(N(C)C)cc2)CC1 (stereo unspecified)
→ 0.61	i
Cc1c(-c2nnc(C(=O)N3CCN(c4ccc(Cl)cc4)CC3)o2)oc2ccccc12
→ -0.82	i
Cc1ccc(COc2ccc(C3CC(=O)Nc4c3c(C)nn4-c3ccc4nnc(C)n4n3)cc2)cc1 (stereo unspecified)
→ 0.46	i
CCCNS(=O)(=O)c1ccc(N2C(=O)CCS2(=O)=O)cc1
→ -0.82	i
O=S1(=O)c2ccccc2NC(c2ccccc2Cl)N1Cc1ccccc1F (stereo unspecified)
→ 0.75	i
O=C(Cn1c(SCc2ccc(F)cc2)nc2cccnc21)Nc1ccccc1F
→ 1.9	i
O=C(c1cc2cc(Br)ccc2[nH]1)N1CCN(C(=O)c2ccccc2F)CC1
→ 0.06	i
CCCCCn1c(CN2CCCCC2)nc2ccccc21
→ 0.44	i
c1ccc(-c2csc3ncnc(N4CCc5ccccc5C4)c23)cc1
→ 1.1	i

Compound activity (PubChem)

An excerpt; rates above refer to the full screens.
